Compound activity from PubChem.
HIV Env fusion – HIV envelope-mediated fusion inhibition; inhibition, % at 12.3 µM; HeLa-JRFL Env/CEM21 cell fusion, luciferase; hit rate 1.1% among 360,000; AID 651610;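 active = mean replicate inhibition score of at least 50 and every replicate individually at or above 50; inconclusive = only one of the two criteria met; inactive = mean below 50 and not all replicates reaching 50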;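 note: 0% = plate neutral controls and 100% = maraviroc near 300 nM; one replicate is shown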
UUG fidelity – yeast start codon fidelity modulation | S. cerevisiae UUG-firefly luciferase reporter, luminescence/redox ratio | hit rate 0.13% among 350,000 | AID 602363 | activity score, % at 18.7 µM;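 active = replicate mean at a twofold rise or more, about +100% in these data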;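 note: firefly luciferase made from a UUG start codon reports start codon fidelity; reporter light over untreated wells divided by growth signal over untreated wells; some hits fall short of that in this replicate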
MT1-MMP act inh – blocks activation of human MT1-MMP | HT1080 RFP-PRO-GFP cells, GFP/RFP ratio fluorescence, overnight; percent of plate control window, DMSO zero | GFP/RFP ratio change, % at 20 µM | hit rate 0.061% among 360,000 | AID 651647;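 active = GFP/RFP ratio change of at least 30% with cell ATP level not reduced by more than half and red fluorescence within 50% of control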; note: strong numbers were not always called active
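Material: RFP-PRO-GFP reporter HT1080 cells. Dosing: single-point 20 µM compound, 1% DMSO. Controls: DMSO and RFP-L50D-GFP cell wells. Timing: cells overnight before dosing, compound overnight, 37 °C, 5% CO2. Measure: GFP/RFP fluorescence ratio.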
eIF4H inh – inhibitors of RNA binding by human eIF4H. eIF4H fluorescence polarization binding assay. inhibition, % at 35 µM. hit rate 0.94% among 290,000. AID 2012;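 active = 50% or more with normal probe brightness, or confirmed in later tests; inconclusive = above 50% with abnormal brightness, or retests that disagree; inactive = below 50% or failed in later tests; about a fifth of its hits are not listed in these tables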;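 note: calls also rest on retests at 20 µM and on dose response follow-up; 0% = protein and probe with vehicle and 100% = probe without protein; strong numbers were not always called active; many hits fall short of the cut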
Rce1 inh – yeast Ras-converting enzyme inhibition; yeast membranes, quenched prenylated peptide cleavage fluorescence; calls only; hit rate 0.27% among 290,000;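 active = fall in fluorescence gain of 50% or more versus controls, with final raw signal at or below 3038400; inconclusive = same 50% fall but final raw signal above 3038400; inactive = fall in fluorescence gain under 50%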;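 note: plate controls were neutral control wells for no effect and wells lacking membranes for full effect; tested at 10 µM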
PABP polyA inh – blocks human PABP binding to poly(A) RNA; fluorescence polarization; P11940; hit rate 1% among 290,000; inhibition, % at 35 µM;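 active = 50% or more with normal probe brightness, or confirmed in later tests; inconclusive = above 50% with abnormal brightness, or retests that disagree; inactive = below 50% or failed in later tests; about a fifth of its hits are not listed in these tables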;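 note: calls also rest on retests at 20 µM and on dose response follow-up; controls were probe without protein and protein plus probe with vehicle; some compounds called inactive have numbers as strong as hits; many hits fall short of the cut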
Target sequence (P11940 whole entry, looked up): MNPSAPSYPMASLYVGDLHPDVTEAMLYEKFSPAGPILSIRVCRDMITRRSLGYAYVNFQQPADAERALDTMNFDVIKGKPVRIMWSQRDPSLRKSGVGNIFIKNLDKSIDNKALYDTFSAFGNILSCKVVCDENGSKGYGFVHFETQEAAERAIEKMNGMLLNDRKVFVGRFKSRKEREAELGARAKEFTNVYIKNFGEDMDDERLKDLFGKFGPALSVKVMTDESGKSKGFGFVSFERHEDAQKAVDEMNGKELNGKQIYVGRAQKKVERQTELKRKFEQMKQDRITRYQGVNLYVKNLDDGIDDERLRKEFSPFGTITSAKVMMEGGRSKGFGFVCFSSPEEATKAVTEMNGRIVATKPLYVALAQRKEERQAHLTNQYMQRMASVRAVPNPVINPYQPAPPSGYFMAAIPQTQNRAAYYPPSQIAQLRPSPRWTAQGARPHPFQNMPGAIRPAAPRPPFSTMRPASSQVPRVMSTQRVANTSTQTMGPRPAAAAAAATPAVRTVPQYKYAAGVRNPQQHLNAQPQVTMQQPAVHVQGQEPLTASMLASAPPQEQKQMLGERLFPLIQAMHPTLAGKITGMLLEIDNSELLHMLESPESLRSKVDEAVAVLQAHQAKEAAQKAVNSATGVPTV
CSC inhib – blocks cancer stem cells; cancer stem cell-like cells viability, luminescence; inhibition, % at 7.5 µM; hit rate 1.1% among 300,000;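 active = mean at 75% or more and at least half the replicates too; inconclusive = mean and replicates disagree; tested in HMLE shEcad cells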;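 note: 0% = median of negative and 100% = median of positive control wells; the first replicate is given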
MT1-MMP act inh RFP – recorded beside MT1-MMP act inh, whose call it bears; RFP signal change, %; measured here: RFP expression control read;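 0 = vehicle wells; hits needed this value within 50% of zero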
Active calls of the source: *. An excerpt, so the mix of outcomes need not match the whole.

For COc1ccc(/C=C/c2c(-c3ccc(OC)cc3)sc3ccc(N4CCOCC4)cc23)cc1 the results were UUG fidelity -3, MT1-MMP act inh -1, eIF4H inh 0, Rce1 inh inactive, PABP polyA inh -10, CSC inhib 26 and MT1-MMP act inh RFP -11.
`Fc1ccc(Nc2nc(N3CCOCC3)nc(N3CCOCC3)n2)cc1Cl` gave HIV Env fusion 8, UUG fidelity -15, MT1-MMP act inh 0, eIF4H inh 8, Rce1 inh inactive, PABP polyA inh 6, CSC inhib 4 and MT1-MMP act inh RFP -6.
Cc1nn(-c2ccccc2)c(C)c1/C=N/NC(=O)c1cc(-c2ccc(Br)s2)[nH]n1 was read as HIV Env fusion -173, UUG fidelity 20, MT1-MMP act inh 2, eIF4H inh -8, Rce1 inh inactive, PABP polyA inh 14, CSC inhib 76* and MT1-MMP act inh RFP -13.
`COc1ccc(S(=O)(=O)N2CCN(c3ccccc3OC)CC2)cc1` gave HIV Env fusion 3, UUG fidelity -24, MT1-MMP act inh -2, eIF4H inh -4, Rce1 inh inactive, PABP polyA inh 7, CSC inhib -16 and MT1-MMP act inh RFP 0.
For CCn1c(SCC(=O)N2CCCC(C)C2)nc2c1c(=O)n(C)c(=O)n2C (stereo not drawn) the results were HIV Env fusion 3, UUG fidelity -8, MT1-MMP act inh -2, eIF4H inh 0, Rce1 inh inactive, PABP polyA inh 2, CSC inhib -2 and MT1-MMP act inh RFP 0.
C(/CCc1ccccc1)=N\n1cnnc1 was read as UUG fidelity -12, MT1-MMP act inh -2, eIF4H inh -1, Rce1 inh inactive, PABP polyA inh 3, CSC inhib 2 and MT1-MMP act inh RFP 3.
O=C(O)c1ccccc1P(=O)(c1ccccc1)c1ccccc1 was read as HIV Env fusion -11, UUG fidelity -4, MT1-MMP act inh 1, eIF4H inh -5, Rce1 inh inactive, PABP polyA inh -12, CSC inhib -11 and MT1-MMP act inh RFP 3.
`CC1CCCN(C(=O)c2cc(F)c(F)cc2Cl)C1` (stereo not drawn) gave MT1-MMP act inh -11, eIF4H inh -10, Rce1 inh inactive, PABP polyA inh -16, CSC inhib -1 and MT1-MMP act inh RFP -2.
For NC(=O)c1ccc(NCc2ccco2)c([N+](=O)[O-])c1 the results were UUG fidelity -10, MT1-MMP act inh 0, eIF4H inh -4, Rce1 inh inactive, PABP polyA inh 3, CSC inhib -7 and MT1-MMP act inh RFP 0.
For O=C(C[n+]1ccccc1)N/N=C/c1cc(Br)cc(Br)c1O the results were UUG fidelity -27, MT1-MMP act inh 2, eIF4H inh 26, Rce1 inh inactive, PABP polyA inh 12, CSC inhib 15 and MT1-MMP act inh RFP 0.
Screening CCOC(=O)Oc1ccc2oc(=O)cc(C)c2c1 returned HIV Env fusion -87, UUG fidelity -19, MT1-MMP act inh 4, eIF4H inh -2, Rce1 inh inactive, PABP polyA inh 2, CSC inhib -7 and MT1-MMP act inh RFP 0.
For O=C(CN(Cc1ccccc1)C(=O)c1cccc([N+](=O)[O-])c1)Nc1c(Cl)cc(Cl)cc1Cl the results were HIV Env fusion 3, UUG fidelity 6, MT1-MMP act inh -1, eIF4H inh -2, Rce1 inh inactive, PABP polyA inh 2, CSC inhib 6 and MT1-MMP act inh RFP -3.
For O=S(=O)(c1ccc(Cl)cc1)N1CCC2(CC1)CO2 the results were HIV Env fusion -1, UUG fidelity -13, MT1-MMP act inh 2, eIF4H inh -12, Rce1 inh inactive, PABP polyA inh -16, CSC inhib 4 and MT1-MMP act inh RFP 3.
Screening COc1ccc(CCN2CC3=C(C2=O)C(c2ccccc2)NC(=O)N3C)cc1OC (stereo not drawn) returned HIV Env fusion -8, UUG fidelity 4, MT1-MMP act inh -3, eIF4H inh -2, PABP polyA inh 2, CSC inhib -11 and MT1-MMP act inh RFP 0.
For Cc1cc(C)nc(-n2nc(C)c3c(C(F)(F)F)cc(=O)[nH]c32)n1 the results were HIV Env fusion -6, UUG fidelity -26, MT1-MMP act inh 2, eIF4H inh -14, Rce1 inh inactive, PABP polyA inh 11, CSC inhib -1 and MT1-MMP act inh RFP 3.
Screening O=C(O)CCCCCNc1nc2ncn(Cc3ccccc3)c2c(=O)[nH]1 returned UUG fidelity 2, MT1-MMP act inh -6, eIF4H inh 3, Rce1 inh inactive, PABP polyA inh -6, CSC inhib 3 and MT1-MMP act inh RFP 0.
For C/C(CCc1ccc2c(c1)OCO2)=N\N=C1\NC(=O)CC(C(=O)Nc2ccccc2F)S1 (stereo not drawn) the results were HIV Env fusion 17, MT1-MMP act inh -3, eIF4H inh -9, Rce1 inh inactive, PABP polyA inh -9, CSC inhib -2 and MT1-MMP act inh RFP 2.
For O=C1[C@H](Oc2ccccc2)[C@@H](c2ccncc2)N1c1ccncc1 the results were HIV Env fusion 4, UUG fidelity -11, MT1-MMP act inh 1 and MT1-MMP act inh RFP 5.
CN(C)S(=O)(=O)c1ccc(C(=O)Nc2ccc3c(c2)CCC3)cc1 was read as HIV Env fusion -7, UUG fidelity -9, MT1-MMP act inh 0, eIF4H inh -2, Rce1 inh inactive, PABP polyA inh -8, CSC inhib -4 and MT1-MMP act inh RFP -9.
For Cc1ccc(OC(=O)c2ccc(C)c(C)c2)cn1 the results were HIV Env fusion -25, UUG fidelity -19, MT1-MMP act inh -1, eIF4H inh -6, Rce1 inh inactive, PABP polyA inh 1, CSC inhib 11 and MT1-MMP act inh RFP 3.
Screening O=c1oc2c(CN3CCOCC3)c(O)ccc2c2ccccc12 returned UUG fidelity 31, MT1-MMP act inh -3, eIF4H inh -5, Rce1 inh inactive, PABP polyA inh 4, CSC inhib -13 and MT1-MMP act inh RFP -3.
For CCOC(=O)C1CCN(Cc2ccc(N(C)C)cc2)CC1 the results were HIV Env fusion 4, UUG fidelity -11, MT1-MMP act inh 4, eIF4H inh 7, PABP polyA inh -6, CSC inhib -17 and MT1-MMP act inh RFP 4.
O=C(NCCCn1ccnc1)/C(=C/c1ccc(F)cc1)NC(=O)c1ccccc1 was read as HIV Env fusion 12, UUG fidelity -16, MT1-MMP act inh -1, eIF4H inh 2, Rce1 inh inactive, PABP polyA inh 9, CSC inhib -8 and MT1-MMP act inh RFP 1.
Screening S=C(NCCCN1CCOCC1)NC1CCCC1 returned HIV Env fusion 6, MT1-MMP act inh 1, eIF4H inh -7, PABP polyA inh 0 and MT1-MMP act inh RFP 5.
`OC(COc1ccc(Cl)cc1)CN1CCC(Cc2ccccc2)CC1` (stereo not drawn) gave HIV Env fusion 6, UUG fidelity -10, MT1-MMP act inh 3, eIF4H inh -8, Rce1 inh inactive, PABP polyA inh 1, CSC inhib 8 and MT1-MMP act inh RFP 3.
`O=C(O)c1c2c(nc3ccc(S(=O)(=O)N4CCC(C(=O)NC5CCCC5)CC4)cc13)CCCCC2` gave HIV Env fusion -2, UUG fidelity -22, MT1-MMP act inh 0, eIF4H inh 2, Rce1 inh inactive, PABP polyA inh 3, CSC inhib -10 and MT1-MMP act inh RFP -1.
Screening COc1ccccc1OC(C)C(=O)Nc1ccccc1C(=O)NCC1CCCO1 (stereo not drawn) returned HIV Env fusion -3, UUG fidelity 1, MT1-MMP act inh -1, eIF4H inh -4, PABP polyA inh 1, CSC inhib -16 and MT1-MMP act inh RFP 2.
For Cc1ccc(-n2cc(CNCCc3ncc(C)[nH]3)c(-c3ccc(F)cc3)n2)cc1 the results were HIV Env fusion -39, MT1-MMP act inh 5, eIF4H inh 2, Rce1 inh inactive, PABP polyA inh 0, CSC inhib 9 and MT1-MMP act inh RFP -2.
Screening FC(F)(F)c1nnc2c(Sc3ccccn3)nc3ccccc3n12 returned HIV Env fusion -16, UUG fidelity -16, MT1-MMP act inh -23, eIF4H inh inconclusive, Rce1 inh inactive, PABP polyA inh inconclusive, CSC inhib 5 and MT1-MMP act inh RFP -20.
`CCN(CCNC(=O)C1CCCN(S(=O)(=O)c2cnc[nH]2)C1)c1ccccc1` (stereo not drawn) gave HIV Env fusion 2, UUG fidelity -6, MT1-MMP act inh 2, eIF4H inh 4, Rce1 inh inactive, PABP polyA inh 4, CSC inhib -5 and MT1-MMP act inh RFP 4.
`CCc1ccccc1Nc1nc2ccccc2[nH]1` gave HIV Env fusion -4, UUG fidelity 0, MT1-MMP act inh -2, Rce1 inh inactive, CSC inhib 13 and MT1-MMP act inh RFP -2.
For Oc1ccccc1/C=N/Nc1ccnc(SCc2ccccc2)n1 the results were MT1-MMP act inh -1, eIF4H inh 0, PABP polyA inh 2, CSC inhib -17 and MT1-MMP act inh RFP 0.
COc1ccccc1C(CNC(=O)c1ccc(OCc2c(C)noc2C)cc1)N1CCCC1 (stereo not drawn) was read as HIV Env fusion -2, MT1-MMP act inh 1, CSC inhib -1 and MT1-MMP act inh RFP 0.
`Cc1cc(C)c(NC(=S)NCC2CCN(C(C)c3ccccc3)C2)c(C)c1` (stereo not drawn) gave HIV Env fusion -7, UUG fidelity -4, MT1-MMP act inh -10, eIF4H inh -4, Rce1 inh inactive, PABP polyA inh 8, CSC inhib 13 and MT1-MMP act inh RFP -2.
`CC(=O)N1CCc2c(sc(NC(=O)CCS(=O)(=O)c3ccc(C)cc3)c2C(N)=O)C1` gave HIV Env fusion -4, UUG fidelity 7, MT1-MMP act inh -5, Rce1 inh inactive, CSC inhib -10 and MT1-MMP act inh RFP 1.
For O=C(NCCc1ccccc1)/C(=C\c1ccc([N+](=O)[O-])cc1)NC(=O)c1ccco1 the results were HIV Env fusion 4, UUG fidelity 2, MT1-MMP act inh -3, eIF4H inh -5, Rce1 inh inactive, PABP polyA inh -14, CSC inhib -1 and MT1-MMP act inh RFP -2.
Screening O=C(CSc1nnc(-c2ccccn2)o1)Nc1cccc(Cl)c1 returned HIV Env fusion -48, UUG fidelity -13, MT1-MMP act inh 2, eIF4H inh -10, Rce1 inh inactive, PABP polyA inh -3, CSC inhib 1 and MT1-MMP act inh RFP 3.
`O=C1OCCN/C1=C\C(=O)c1ccc(Cl)cc1` gave HIV Env fusion 2, UUG fidelity -9, MT1-MMP act inh -5, eIF4H inh 7, PABP polyA inh 2, CSC inhib -12 and MT1-MMP act inh RFP 4.
CCOc1c(O)ccc(C2NC(=O)NC(C)=C2C(=O)OC)c1[N+](=O)[O-] (stereo not drawn) was read as HIV Env fusion -1, UUG fidelity -4, MT1-MMP act inh -4, eIF4H inh 48, Rce1 inh inactive, PABP polyA inh 6, CSC inhib -4 and MT1-MMP act inh RFP 1.
For CCn1ccnc1CNC(=O)c1cc(COc2ccc(F)cc2F)on1 the results were HIV Env fusion -8, MT1-MMP act inh 0, eIF4H inh -9, Rce1 inh inactive, PABP polyA inh 9, CSC inhib -9 and MT1-MMP act inh RFP -1.
`COC(=O)c1sc(NC(=S)NC(=O)c2cccc(C)c2)nc1C` gave HIV Env fusion -7, UUG fidelity -11, MT1-MMP act inh 2, eIF4H inh 1, Rce1 inh inactive, PABP polyA inh 8, CSC inhib -19 and MT1-MMP act inh RFP 7.
Screening Cc1ccc(C(=O)COC(=O)CNC(=O)c2cccs2)cc1C returned HIV Env fusion -13, UUG fidelity -1, MT1-MMP act inh 0, eIF4H inh -9, Rce1 inh inactive, PABP polyA inh -2, CSC inhib 7 and MT1-MMP act inh RFP 4.
For CCn1c(SCC(=O)NNC(=O)c2ccc(OC)cc2)nnc1C1CC1 the results were HIV Env fusion 15, UUG fidelity -11, MT1-MMP act inh 1, eIF4H inh -3, PABP polyA inh 0, CSC inhib -11 and MT1-MMP act inh RFP 0.
